HNF4A DNA FP: change in binding of human HNF4 alpha to DNA; HNF4a-FITC DNA binding, fluorescence polarization, 1 h; 360,000 compounds, 0.3% hits; activity change, % at 10 µM; in the data active means activity change above about 30%, passing the limit was not always enough;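 further: controls were the assay level and a saturating level of protein; the project sought stronger binding though the title names inhibitors; some compounds called inactive have numbers as strong as hits; positive values seem to mean higher polarization but the record does not say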
Ecoli growth: blocks Escherichia coli growth | OD600, 23 h; hits give low values | OD600 absorbance (concentration not given with the values) | 330,000 compounds, 0.21% hits | AID 1053175;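 active means OD600 absorbance below the run mean of sample wells minus 3.6 SD, in any replicate, cut at about 0.56 in these data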;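 further: stock transfer was 300 nL into about 60 µL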
Beta2AR agonist: activates human beta-2 adrenergic receptor causing internalization; P07550; response, % (no concentration beside the values); Am2.2-beta2AR cells, FAP receptor internalization, flow cytometry; reference of the scale not given here; 340,000 compounds, 0.43% hits;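 active means response above a set limit, near 3 SD of response in nonfluorescent compounds, cut at about 42% in these data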;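 further: stock transfer was 100 nL into about 11 µL; a reference agonist was the positive control; negative values mostly stem from fluorescent compounds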
Target sequence (P07550 whole entry, looked up): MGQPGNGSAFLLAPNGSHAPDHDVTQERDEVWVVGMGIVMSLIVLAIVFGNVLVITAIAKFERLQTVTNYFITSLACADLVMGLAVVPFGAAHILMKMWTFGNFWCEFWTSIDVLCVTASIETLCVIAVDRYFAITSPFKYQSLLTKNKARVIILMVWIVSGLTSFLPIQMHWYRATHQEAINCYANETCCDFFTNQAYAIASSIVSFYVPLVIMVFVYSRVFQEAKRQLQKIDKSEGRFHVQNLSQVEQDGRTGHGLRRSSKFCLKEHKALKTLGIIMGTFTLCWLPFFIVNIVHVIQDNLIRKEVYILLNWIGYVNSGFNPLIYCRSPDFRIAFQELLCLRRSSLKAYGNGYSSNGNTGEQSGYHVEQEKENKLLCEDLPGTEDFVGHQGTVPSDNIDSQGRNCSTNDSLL
LANA-H2B inh: blocks KSHV LANA binding to histone H2A/H2B | cell-free LANA-H2A/H2B peptide, fluorescence polarization | inhibition, % (no concentration beside the values) | 320,000 compounds, 0.6% hits; in the data active means inhibition mostly above about 10%, no sharp cut-off; inactive means mostly below about 6.7%;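 further: stock transfer was 7.5 nL into about 10 µL; 0% = median of vehicle wells and 100% = median of positive control wells; one replicate is shown; the record names a cut of 25% in any replicate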
ALR H2O2 inh: inhibitors of human sulfhydryl oxidase ALR; P55789; 290,000 compounds, 3.8% hits; inhibition, % (concentration not given with the values); purified ALR, DTT oxidation, H2O2 HRP-luminol luminescence;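 active means mean and each replicate at 75% or more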;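 further: stock transfer was 7.5 nL into about 7.5 µL; 0% = neutral wells and 100% = wells with inactivated enzyme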
Target sequence (P55789 whole entry, looked up): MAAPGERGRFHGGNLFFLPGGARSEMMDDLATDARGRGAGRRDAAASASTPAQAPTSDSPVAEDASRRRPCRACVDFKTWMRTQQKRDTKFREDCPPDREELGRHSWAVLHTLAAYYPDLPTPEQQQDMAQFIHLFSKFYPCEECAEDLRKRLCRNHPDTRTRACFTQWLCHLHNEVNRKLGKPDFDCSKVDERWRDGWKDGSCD
UCH37 DUB inh: human UCH37 deubiquitinating enzyme inhibition; Q9Y5K5; purified proteasome/UCH37, Ub-AMC cleavage fluorescence; inhibition, % (concentration not given with the values); 330,000 compounds, 0.33% hits; AID 588478;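 active means mean of two replicates above 20%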;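 further: 0% = compound-free wells with enzyme and 100% = wells lacking proteasome; stock transfer was 100 nL into about 20 µL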
Target sequence (Q9Y5K5 whole entry, looked up): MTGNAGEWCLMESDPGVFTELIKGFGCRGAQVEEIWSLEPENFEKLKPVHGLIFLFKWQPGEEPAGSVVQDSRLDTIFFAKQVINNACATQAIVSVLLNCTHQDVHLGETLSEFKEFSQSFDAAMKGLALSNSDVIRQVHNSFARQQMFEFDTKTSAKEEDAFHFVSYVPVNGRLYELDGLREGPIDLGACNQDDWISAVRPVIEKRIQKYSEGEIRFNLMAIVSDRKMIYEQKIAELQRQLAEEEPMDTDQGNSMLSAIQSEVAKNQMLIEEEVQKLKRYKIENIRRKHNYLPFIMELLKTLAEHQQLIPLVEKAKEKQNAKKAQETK
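Material: human UCH37 enzyme supplied as purified proteasome complex / Amount: 0.15 nM proteasome as dispensed / Buffer or medium: pH 7.4 Tris-HCl (50 mM) with ovalbumin, ATP-MgCl2, DTT / Times: preincubation 30 min, reaction 25 min, room temperature / Technique: AMC fluorescence from Ub-AMC cleavage, excitation 355 nm, emission 460 nm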
FGF22 binding: FGF22 (human) thermal shift binding | Q9HCT0 | recombinant FGF22 thermal shift, SYPRO orange fluorescence; percent of sucrose octasulfate shift, DMSO zero | calls only at 9.99 µM | 340,000 compounds, 1.5% hits | AID 651658;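 active means melting point raised past a set limit in the mean and every replicate; three in four hits are not shown here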
Numbers without * were called inactive; i = inactive; . = no result given; & = joins results of further samples. An excerpt. The share of hits here may be higher or lower than overall.

SMILES	HNF4A DNA FP	Ecoli growth	Beta2AR agonist	LANA-H2B inh	ALR H2O2 inh	UCH37 DUB inh	FGF22 binding
CCN1CC2C3CCC(C)(O3)C2C1 (stereo not given)	-3.2	.	5	-1.2	-2	.	i
O=c1[nH]c(=S)n(Cc2ccc(F)cc2)c(O)c1C=NCc1ccc2c(c1)OCO2	-0.3	0.7	-2	-0.7	-2	4.5	i
COC(=O)C1=C(c2c(C)noc2C)C[C@@H]2CC[C@H]1N2C(=O)NCc1ccc(C(F)(F)F)cc1	-2.3	0.75	11	-1.6	6	6.5	i
Fc1ccccc1CCNCc1cccc(Cl)c1Cl	1.2	0.63	7	12	-8	2.2	.
CC1(CCl)CN1S(=O)(=O)c1ccccc1 (stereo not given)	1.7	0.72	5	1.7	-1	4.6	i
CCSC1=NN1c1cc(C)nc(N)n1	-5.7	0.71	5	-1.3	.	-0.7	i
COc1cc(/C=C/c2nc3ccccc3c(=O)n2-c2ccccc2O)ccc1O	10	0.71	-48	4.2	64	-31	i
CCC(=Nc1ccc(OC)cc1OC)c1c(O)n(C)c(=O)n(C)c1=O	1.4	0.73	-5	-0.5	6	2.9	.
O=C(NP(=O)(N1CC1)N1CC1)c1cc(I)ccc1I	-4.7	.	-5	.	.	.	i
Nc1ccc(-c2ccc(N)cc2)cc1	1.8	0.69	-2	.	.	0.0	i
Cc1nn(Cc2ccccc2)c(C)c1C=C1C(=O)NC(=S)NC1=O	6.6	0.66	7	0.3	29	5.7	i
COC(=O)C1=C(c2ccc(F)cc2OCc2ccccc2)C[C@@H]2CC[C@H]1N2C(=O)NCc1ccccc1Cl	-3.1	.	5	-2.4	7	4.7	i
CCOC(=O)C1CCN(Cc2ccc(Cl)nc2)CC1	-2.9	0.67	-5	-3.7	-8	0.7	i
COc1ccc(Br)cc1CN1CCN(CCO)CC1	-3.6	0.64	1	-0.8	-10	0.6	.
Cc1ccc(CNC2=NCCS2)cc1	0.8	0.69	-5	-2.9	16	5.1	i
O=C(NC[P+](=O)O)OCc1ccccc1	-8.8	0.7	4	1.4	24	4.7	.
CNc1ccc2oc(C[C@H]3O[C@@]4(CC[C@H]3C)O[C@H]([C@H](C)C(=O)c3ccc[nH]3)[C@H](C)C[C@H]4C)nc2c1C(=O)O	-2.6	.	28	-3.8	4	-9.6	i
N#Cc1ccc(Cn2cc(C=O)c3ccccc32)cc1	1.8	0.67	3	1.8	-14	3.2	i
O=C1CC(=O)N(CCc2ccccc2)C(=O)N1CCc1ccccc1	3.7	0.69	11	6.8	7	2.5	.
O=C(O)CCCc1ccc(N(CCCl)CCCl)cc1	-0.4	0.67	8	-2.7&-21	99*	1.1	i
O=C1NC(=O)C(=Cc2ccc3c(c2)OCO3)C(=O)N1	.	0.7	.	-3.3	-26	4.4	.
CC1CCCCN1C(=O)Cn1cc(C=C2C(=O)N(C)C(=O)N(C)C2=O)c2ccccc21 (stereo not given)	6.2	0.72	7	-2.3	-2	3.7	i
CC1(C(O)(C#CCN2CCCCC2)c2ccccc2)CCCC1 (stereo not given)	-2.2	0.65	-2	-1.8	11	1.3	i
CCCCN1C(=O)C(C2c3ccccc3C(=O)N2Cc2ccccc2)C(=O)NC1=S (stereo not given)	-0.8	0.68	-1	-0.7	.	4.1	.
CCC(C)(O)C(=O)OC1C(=O)OC2CC3C(C)=CC(=O)C(O)C3(C)C3C4(O)OCC23C1C(C)C4O (stereo not given)	-3.0	.	-3	.	.	.	i

A different layout for part of the listing above.
> COc1cc(/C=C/c2nc3ccccc3c(=O)n2-c2ccccc2O)ccc1O
- HNF4A DNA FP = 10
- Ecoli growth = 0.71
- Beta2AR agonist = -48
- LANA-H2B inh = 4.2
- ALR H2O2 inh = 64
- UCH37 DUB inh = -31
- FGF22 binding = i

> CCC(=Nc1ccc(OC)cc1OC)c1c(O)n(C)c(=O)n(C)c1=O
- HNF4A DNA FP = 1.4
- Ecoli growth = 0.73
- Beta2AR agonist = -5
- LANA-H2B inh = -0.5
- ALR H2O2 inh = 6
- UCH37 DUB inh = 2.9
- FGF22 binding = .

Additional results:
SMILES	HNF4A DNA FP	Ecoli growth	Beta2AR agonist	LANA-H2B inh	ALR H2O2 inh	UCH37 DUB inh	FGF22 binding
O=C(COc1ccc(Br)cc1)N1CCN(Cc2ccncc2)CC1	-4.6	0.76	6	.	.	3.7	.
CN1CCc2nc(N)c(C#N)c(-c3ccccc3)c2C1	-3.5	0.67	-3	2.4	-30	-17	i
CN1C2CCC1/C(=C/c1ccccn1)C(=O)/C2=C\c1ccccn1	5.3	0.65	32	5.4	71	-0.1	i
Clc1ccc2[nH]c3c(c2c1)CCNC3	2.5	0.62	-3	3.4	8	3.1	i
COC(=O)C1=C(c2ccc(F)cc2OCc2ccccc2)C[C@@H]2CC[C@H]1N2C(=O)NCc1ccc(N(C)C)cc1	-2.0	.	8	-0.6	2	-1.4	i
CC1=NN(c2ccccc2)C(=O)/C1=C/c1c(O)[nH]c(=S)[nH]c1=O	4.8	.	18	2.2	22	.	.
CCCCNC(=O)Nc1ccc(C(O)(C(=O)OCC)C(F)(F)F)cc1 (stereo not given)	0.1	0.65	-2	-4.8	-5	1.9	.
COc1ccccc1CN1CCN(C(=O)COc2cccc(C)c2)CC1	9.0	0.71	1	1.9	.	3.2	.
O=Cc1cn(Cc2cccc([N+](=O)[O-])c2)c2ccccc12	1.8	0.71	-7	0.0	-16	1.2	i
Cc1ccc(S(=O)(=O)N2CN3CCN(C3)C2)cc1	19	0.71	2	0.3	.	0.4	.
C=CCc1cc(C=C2C(=O)N(C)C(=O)N(C)C2=O)cc(OCC)c1OCc1ccccc1	4.0	0.67	19	0.4	23	4.1	.
O=C(O)c1cc2ccccc2oc1=O	1.7	0.72	-2	-1.0	-17	1.8	i
COc1ccc(C(C)=O)cc1CC(C(=O)c1ccc(F)cc1)N(C)C (stereo not given)	2.0	0.68	-5	1.1	5	0.7	i
C=C(C)C(Cc1c(OC)ccc(C(=O)/C=C/c2ccc(O)cc2)c1O)OO (stereo not given)	-0.3	0.67	10	.	.	49*	i
Clc1ccc(C2N3CCCN23)c(Cl)c1 (stereo not given)	2.2	0.71	-7	-1.5	-7	7.0	.
O=C(c1cccc2ccccc12)C1CCCN(C2CCC2)C1 (stereo not given)	-2.8	0.66	6	-4.0	-35	-0.5	i
CC1=C(/C=C/c2ccccc2)CCN(C)C1	-5.1	0.65	-6	-1.4	-13	-0.3	.
c1ccc(C(OCCN2CCNCC2)c2ccccc2)cc1	-0.3	0.74	-5	0.8	-26	2.1	.
Cc1nn2c(c1-c1ccccc1)NC1=C(C(=O)CCC1)C2c1ccccc1 (stereo not given)	3.5	0.69	-3	-5.4	14	-395	.
O=c1c2ccccc2nc(N2CCCC2)n1-c1ccc(Cl)cc1	2.6	0.69	1	1.0	9	-79	.
COC(=O)CC1(Cc2ccccc2)C(=O)NC(=O)NC1=O	-5.2	0.73	1	-8.6	-13	1.6	.
COc1ccccc1N1C(=O)NC(=O)/C(=C\c2cnn(-c3ccccc3)c2)C1=O	-7.7	0.78	24	0.3	67	6.5	i
O=C(c1ccc(-c2ccccc2)cc1)C1CCCN(Cc2ccn[nH]2)C1 (stereo not given)	-0.7	0.66	1	0.3	6	2.6	i
CC1OC(OC2CC(O)C3(CO)C4C(O)CC5(C)C(C6=CC(=O)OC6)CCC5(O)C4CCC3(O)C2)C(O)C(O)C1O (stereo not given)	2.9	.	19	.	.	.	i
COc1ccccc1CCNC(=O)CCC(=O)N1CC2C[C@@H](C1)Cn1c2cccc1=O	5.2	0.74	2	2.3	.	6.3	i

Six structures out of the list, arranged by molar mass, smallest number first.
SMILES	HNF4A DNA FP	Ecoli growth	Beta2AR agonist	LANA-H2B inh	ALR H2O2 inh	UCH37 DUB inh	FGF22 binding
Nc1ccc(-c2ccc(N)cc2)cc1	1.8	0.69	-2	.	.	0.0	i
Cc1ccc(CNC2=NCCS2)cc1	0.8	0.69	-5	-2.9	16	5.1	i
Cc1ccc(S(=O)(=O)N2CN3CCN(C3)C2)cc1	19	0.71	2	0.3	.	0.4	.
C=C(C)C(Cc1c(OC)ccc(C(=O)/C=C/c2ccc(O)cc2)c1O)OO (stereo not given)	-0.3	0.67	10	.	.	49*	i
COc1cc(/C=C/c2nc3ccccc3c(=O)n2-c2ccccc2O)ccc1O	10	0.71	-48	4.2	64	-31	i
CCC(C)(O)C(=O)OC1C(=O)OC2CC3C(C)=CC(=O)C(O)C3(C)C3C4(O)OCC23C1C(C)C4O (stereo not given)	-3.0	.	-3	.	.	.	i

The listing continues.
SMILES	HNF4A DNA FP	Ecoli growth	Beta2AR agonist	LANA-H2B inh	ALR H2O2 inh	UCH37 DUB inh	FGF22 binding
FC(F)(F)c1cccc(-n2nnnc2C2(N3CCOCC3)CCCCC2)c1	0.0	0.71	6	-1.4	-1	-1.0	.
CCN(CC)c1ccc(N=Cc2c(O)n(-c3cc(OC)ccc3OC)c(=O)[nH]c2=O)cc1	13	0.75	2	-3.7	95*	1.5	.
CC(C)OC1CCCC(O)C1CC(=O)O (stereo not given)	0.4	0.66	-1	16	-3	-2.7	i
C=CCN1C(=O)/C(=C/c2cc(C)n(-c3ccccn3)c2C)C(=O)NC1=S	-4.3	0.64	-11	0.6	68	0.4	i
CCCCCCC(=O)c1c(O)n(-c2ccc(OC)cc2)c(=O)[nH]c1=O (tested in a mixture with another compound)	-2.9	0.69	8	-0.7	-2	7.3	i
OC12ONC(c3ccccn3)C1N1CCC2CC1 (stereo not given)	0.0	0.67	8	-7.5	4	-2.7	i
COC1=CC(=O)O[C@@H](/C=C/c2ccccc2)C1	-0.7	.	0	6.9	.	6.1	i
CC(=NNC(=S)N1CC2CCC(CC2)C1)c1nccs1	-0.7	.	-3	.	.	.	i
O=C1C=C2C=C[C@H]3C[C@]2(O1)[C@@H]1CCCCN13	0.8	.	-13	1.2	-4	-1.2	i
O=c1cccc2n1CC1CC2CN(c2ncnc3c2cnn3-c2ccc(Cl)cc2)C1 (stereo not given)	5.9	0.74	-1	4.6	-4	0.8	.
CCN1CCN(Cc2cc(OC)c(OC)cc2[N+](=O)[O-])CC1	.	0.7	.	2.0	-10	7.2	i
Cc1ccc(OP(=O)(O)Oc2ccc(C)cc2)cc1	-2.5	.	-2	2.3	.	.	.
Clc1ccc(N2CC2c2ccncc2)cc1 (stereo not given)	3.2	0.67	-9	11	.	5.2	i

A different layout for 2 compounds above:
C=C(C)C(Cc1c(OC)ccc(C(=O)/C=C/c2ccc(O)cc2)c1O)OO (stereo not given)
  HNF4A DNA FP: -0.3
  Ecoli growth: 0.67
  Beta2AR agonist: 10
  LANA-H2B inh: .
  ALR H2O2 inh: .
  UCH37 DUB inh: 49*
  FGF22 binding: i
Clc1ccc(C2N3CCCN23)c(Cl)c1 (stereo not given)
  HNF4A DNA FP: 2.2
  Ecoli growth: 0.71
  Beta2AR agonist: -7
  LANA-H2B inh: -1.5
  ALR H2O2 inh: -7
  UCH37 DUB inh: 7.0
  FGF22 binding: .
